Screening data as filed in PubChem BioAssay.
ugtP null kill = growth inhibition of ugtP-null S. aureus, primary screen, RN4220 ugtP deletion, OD600; 16 h; some inactives read as strong as hits; growth inhibition, % (concentration not given with the values); actives 0.54% (n = 330,000); AID 1259309, 2017;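 active means z-score under -3 and OD600 up to 0.15 on both plates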;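 further: plate controls were untreated wells for no effect and antibiotic for full effect; wells of about 80 µL received 100 nL stock; the first replicate is given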
BJeLR lethal = MLPCN primary cell-based screen for lethality selective to Ras in HRASV12 cells. BJeLR (HRASV12) viability, CellTiter-Glo ATP luminescence, 48 h; reference of the scale not given here. inhibition, % (concentration not given with the values). actives 0.17% (n = 300,000). AID 1554, 2009;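 active means replicate mean above 50%; inconclusive means above 50% but judged a plate artefact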;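 further: 50 nL library stock added to about 25 µL; numbers are from one replicate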
PrP 5UTR inh = inhibition of PrP 5' UTR reporter expression. cell-based PrP 5' UTR mRNA reporter, plate reader. inhibition, % (concentration not given with the values). actives 0.35% (n = 340,000);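 active means every replicate at 50% or more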;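 further: 0 = median of the neutral control wells; tested in H4 reporter cells; numbers are from one replicate; inactives centre near -14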
Autofluor counter = compound fluorescence in toxin protease inhibitor counterscreen. compound autofluorescence counterscreen, microsphere flow cytometry; hits give high values. fluorescence intensity (test concentration not listed). actives 3.1% (n = 360,000);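 active means at least 3 SD above the mean of all compounds, about 16000 in these data; inconclusive means too few beads counted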;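 further: 100 nL of 1 mM stock went into each well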
Mtb hypoxia rep = PubChem AID 1159583 | actives 0.1% (n = 300,000) | M. tuberculosis hypoxia-regulated fluorescent reporter, fluorescence | fluorescence inhibition, % (test concentration not listed);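 active means 35 to 45% if threefold the growth effect, above 45% if 1.5-fold the growth effect; inactive means the rest, general growth blockers included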;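 further: wells of about 50 µL received 100 nL stock; 0% = vehicle wells and 100% = reference inhibitor wells; whole bacteria with a GFP reporter of the hypoxia response; strong numbers were not always called active; many hits fall short of the cut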
RN4220 kill = growth inhibition of S. aureus RN4220, primary screen, OD600. 16 h. inhibition, % (concentration not given with the values). actives 0.33% (n = 330,000);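 active means z-score of -3 or lower and OD600 up to 0.18 on both plates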;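 further: plate controls were untreated cells for no effect and reference antibiotic for full effect; stock transfer was 100 nL into about 80 µL; one replicate is shown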
Mtb hypoxia rep growth = recorded beside Mtb hypoxia rep, whose call it bears; growth inhibition, %; measured here: M. tuberculosis growth (absorbance);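 0% = vehicle and 100% = reference antibiotic; read after six days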
The depositor's hits bear a star; ? = inconclusive; nt = no result given.

SMILES | ugtP null kill | BJeLR lethal | PrP 5UTR inh | Autofluor counter | Mtb hypoxia rep | Mtb hypoxia rep growth | RN4220 kill
O=C(CSc1nc2ccccc2s1)NCc1cc([N+](=O)[O-])ccc1O | 1.3 | 3.5 | -8.4 | 3382 | 3.5 | 0.9 | 8.3
COc1cccc(NC(=O)Nc2nnc(N3C(C)CCCC3C)s2)c1 (stereo unspecified) | -0.1 | -4.7 | -28.6 | ? | -3.3 | 6.9 | 19.4
Cc1ccc2c(c1)NC(=O)C(CC(=O)NCc1cccnc1)O2 (stereo unspecified) | 5.7 | -4.7 | -24.8 | 6106 | nt | nt | -2.1
CC(C)(C)OC(=O)C[C@@H]1C/C=C\C[C@H](CC(=O)N[C@H](CO)Cc2ccccc2)C(=O)N[C@H](C(C)(C)C)COC1=O | 9.4 | nt | -9.4 | 3658 | 1.3 | 8.0 | 1.9
O=[N+]([O-])c1cc(C(F)(F)F)ccc1Sc1ccc2ccccc2n1 | 21.6 | 8.0 | -5.3 | 12096 | 7.6 | -0.1 | -3.5
CCCS(=O)(=O)c1nc(C)cc(C)c1S(C)(=O)=O | 7.5 | 1.2 | -7.0 | 4439 | 20.0 | 2.6 | 4.2
COc1cc(C=NNC(=S)Nc2cccnc2)cc(OC)c1OC | -0.8 | nt | nt | nt | -0.6 | 3.2 | 0.1
COc1cc(Cl)ccc1OCc1cc(C(=O)N(C)Cc2cn(C)nc2C)no1 | 5.6 | 6.9 | -13.9 | 5278 | 8.7 | 8.4 | -0.4
O=C(Nc1c(C(=O)NCc2ccco2)cnn1-c1ccccc1)c1cccc(F)c1 | 3.3 | 2.1 | 1.8 | 15717 | 2.2 | 15.6 | 4.9
Cc1ccc(N2C(=O)N(CC(=O)Nc3cccc([N+](=O)[O-])c3C)C(=O)C2C)cc1 (stereo unspecified) | 11.6 | 4.4 | -35.5 | 6158 | 1.4 | 0.0 | 1.1
CC(C)c1ccccc1OCC(=O)Nc1ccc2[nH]ncc2c1 | 13.9 | 7.7 | -6.9 | 4729 | -0.4 | 0.5 | 0.5
CCC(C(=O)NC1CCCCC1)N(Cc1cccs1)C(=O)CCC(=O)Nc1cc(C)on1 (stereo unspecified) | 1.2 | -2.0 | -17.8 | 3622 | 1.0 | 4.1 | 1.0
CCOC(=O)C1CCN(C(=O)CNC(=O)c2nn(-c3ccc(OC)c(Cl)c3)c(=O)c3ccccc23)CC1 | 11.4 | 0.3 | -9.8 | 6262 | 1.6 | 13.6 | 4.1
O=C(OCC(=O)N1CCOCC1)c1cc2ccccc2oc1=O | 1.9 | nt | nt | 5115 | 10.3 | 6.2 | 3.7
FC(F)(F)c1ccc(Nc2nnnc3ccccc23)cc1 | 0.7 | -0.9 | -24.1 | 4121 | -0.9 | -4.8 | -1.7
CC(C)N(CCO)C(=O)C(c1ccccc1)c1ccccc1 | 1.3 | -11.5 | -17.9 | 3220 | nt | nt | 2.3
CNc1nc2ccccc2n(C)c1=O | -1.1 | 3.3 | -7.1 | 4495 | 11.2 | 0.5 | 6.4
COc1ccccc1-c1sc2ccccc2c1-c1ccc2c(c1)OCO2 | nt | -10.6 | -15.1 | 3757 | nt | nt | nt
Cc1ccc(-c2nn(C(C)(C)C)c3ncnc(N)c23)cc1 | 23.6 | nt | 29.4 | 2811 | -3.4 | -3.2 | 26.3
Cc1c(O)ccc(-c2n[nH]c(C(=O)O)c2-c2nc3ccccc3s2)c1O | 3.2 | 14.3 | nt | 3570 | 0.6 | 7.1 | 3.6
COc1cccc(CN2CCN(C(=O)c3ccc(-c4ccccc4)cc3)CC2)c1OC | -7.8 | -4.9 | -25.2 | 2653 | -0.2 | 5.1 | 2.7
COc1ccc(F)cc1CN1CCN(C(=O)c2ccc(S(=O)(=O)N3CCCCCC3)cc2)CC1 | 4.2 | nt | nt | ? | 5.2 | 4.4 | 3.2
CCn1c(SCC(=O)Nc2ccc(NC(=O)c3ccco3)cc2)nnc1-c1cccs1 | nt | 5.6 | -16.8 | 2804 | nt | nt | nt
O=C(NC(=S)Nc1nc2ccccc2s1)c1cccs1 | 40.4 | -3.2 | -74.5 | 2567 | 3.7 | -0.8 | -7.5

Shown with values under each structure: 2 of the compounds above
Every second line gives: ugtP null kill, BJeLR lethal, PrP 5UTR inh, Autofluor counter, Mtb hypoxia rep, Mtb hypoxia rep growth, RN4220 kill
> Cc1ccc(-c2nn(C(C)(C)C)c3ncnc(N)c23)cc1
 : 23.6, nt, 29.4, 2811, -3.4, -3.2, 26.3
> O=C(OCC(=O)N1CCOCC1)c1cc2ccccc2oc1=O
 : 1.9, nt, nt, 5115, 10.3, 6.2, 3.7

(list continues)
SMILES | ugtP null kill | BJeLR lethal | PrP 5UTR inh | Autofluor counter | Mtb hypoxia rep | Mtb hypoxia rep growth | RN4220 kill
COc1ccc(-n2c(Cc3cccn3C)nnc2SCC(=O)NC2CCCC2)cc1 | 3.5 | -8.1 | -12.5 | 4319 | nt | nt | -1.6
O=C(c1ccc(NS(=O)(=O)c2cccc3cccnc23)cc1)N1CCOCC1 | 2.8 | 5.8 | -6.5 | 3456 | nt | nt | 2.5
OC(CN1CCN(Cc2ccccc2)CC1)c1ccc(F)cc1 (stereo unspecified) | -0.5 | 3.9 | -5.7 | 8572 | 3.1 | 2.9 | 2.6
O=C(NCc1ccco1)C1CCN(c2nc3ccccc3n2Cc2ccccc2F)CC1 | 15.5 | -4.5 | -1.7 | 6108 | 13.9 | 10.4 | 1.6
CCCC1(C(=O)OC)NC(c2ccc(OC)cc2OC)C2C(=O)N(c3cccc(C(C)=O)c3)C(=O)C21 (stereo unspecified) | 4.9 | 21.6 | -13.5 | 3489 | 11.6 | 14.4 | 2.9
CCOC(=O)c1ccc(NC(=O)C(CC)CC)cc1 | 0.5 | -6.7 | -39.4 | 4235 | 7.4 | 2.2 | 5.2
COC(=O)CN1C(=O)COc2ccc(Cl)cc21 | -1.3 | -8.0 | -12.5 | 4500 | nt | nt | 0.0
CCOc1ccccc1NCc1nnc(-c2ccccc2)o1 | -0.9 | -1.9 | -11.8 | 3878 | 17.4 | 30.9 | -0.5
O=C(CSc1nc(=O)n2ccccc2n1)NCc1ccc2c(c1)OCO2 | 1.1 | 2.3 | -4.4 | 5656 | 9.0 | 6.4 | 2.2
CCC(C)C(=O)Nc1nnc(SCC(=O)NC2CCCC2)s1 (stereo unspecified) | 1.9 | -14.1 | 6.4 | 6389 | 5.5 | 5.1 | 1.8
O=C(NN1C(=O)NC2(CCCCC2)C1=O)c1cc2cc(Cl)ccc2o1 | -2.6 | nt | -38.4 | 8144 | 2.0 | 1.0 | 4.7
O=C(CCCSc1nc2ccccc2s1)NC1=NCCS1 | 0.5 | 0.9 | -27.5 | 23045* | 2.6 | 4.4 | 2.7
Cc1ccc(NC(=O)CN2C(=O)COc3ccc(C)cc32)nc1 | 4.6 | -0.3 | -5.2 | 21570* | 1.7 | 4.6 | 4.2
CCOC(=O)C1(Cc2ccccc2)CCCN(C2CCN(C(C)=O)CC2)C1 (stereo unspecified) | -2.7 | 2.7 | -20.3 | 10437 | 7.2 | 3.6 | 3.0
COc1ccc(C=NNC(=O)c2ccc(Cn3cc(Br)c([N+](=O)[O-])n3)o2)c(OC)c1C | -1.0 | nt | nt | nt | 7.4 | 4.1 | 4.0
CC(=O)C(/C=N/c1ncc(C(F)(F)F)cc1Cl)=C(\C)O | 7.8 | -1.1 | -20.3 | 3384 | 6.1 | -3.0 | 4.6
C=C(C)CNC(=S)N/N=C(\C)c1cccc(NC(C)=O)c1 | nt | 2.6 | -12.2 | 3463 | nt | nt | nt
CCC(C)[C@H](NC(=O)Nc1ccc(C)cc1C)C(=O)O (stereo partly specified) | 3.2 | -2.6 | -8.2 | 3910 | 10.9 | 7.8 | 4.1
COc1ccc(/C=C(/NC(=O)c2ccccc2)C(=O)NCCCn2ccnc2)cc1OC | 6.1 | 3.0 | -9.6 | 4759 | 4.9 | 0.1 | 3.6
Cc1[nH]nc2c1C1(C(=O)Nc3ccc([N+](=O)[O-])cc31)C(C#N)=C(N)O2 (stereo unspecified) | -8.9 | 3.0 | -19.4 | 8724 | -1.0 | 2.9 | 3.8
CCOC(=O)c1nnc(-c2ccccc2)nc1N1CC(C)OC(C)C1 (stereo unspecified) | -0.4 | 5.1 | -8.5 | 2478 | 14.8 | 6.4 | 3.8
O=C(C1CCN(C2CCN(C/C=C/c3ccccc3)CC2)CC1)N1CCOCC1 | 0.3 | 3.8 | -16.8 | 5649 | 5.8 | 6.2 | 2.1
COc1ccc(C(=O)CSc2nnc(CC(=O)Nc3ccccc3OC)n2C)cc1 | 6.8 | 1.1 | -19.8 | 3397 | -0.1 | 0.2 | 1.8
COc1ccc(/C=C(/NC(C)=O)C(=O)O)cc1 | -4.6 | -4.4 | -11.2 | 3271 | 1.5 | 8.9 | -22.5

Quoted from the listing, three compounds:
SMILES | ugtP null kill | BJeLR lethal | PrP 5UTR inh | Autofluor counter | Mtb hypoxia rep | Mtb hypoxia rep growth | RN4220 kill
Cc1ccc(NC(=O)CN2C(=O)COc3ccc(C)cc32)nc1 | 4.6 | -0.3 | -5.2 | 21570* | 1.7 | 4.6 | 4.2
CCOC(=O)C1(Cc2ccccc2)CCCN(C2CCN(C(C)=O)CC2)C1 (stereo unspecified) | -2.7 | 2.7 | -20.3 | 10437 | 7.2 | 3.6 | 3.0
COc1ccc(C=NNC(=O)c2ccc(Cn3cc(Br)c([N+](=O)[O-])n3)o2)c(OC)c1C | -1.0 | nt | nt | nt | 7.4 | 4.1 | 4.0

Further structures follow.
SMILES | ugtP null kill | BJeLR lethal | PrP 5UTR inh | Autofluor counter | Mtb hypoxia rep | Mtb hypoxia rep growth | RN4220 kill
COc1ccc(CC(=O)N(C)Cc2cccc(OC)c2OC)cc1S(=O)(=O)N1CCOCC1 | 2.8 | -7.2 | -16.6 | 4747 | 2.3 | 2.9 | 1.1
CC1(c2ccccc2)NC(=O)N(CC(=O)Nc2ccc(S(N)(=O)=O)cc2)C1=O (stereo unspecified) | 9.1 | -14.0 | 1.4 | 5593 | 3.9 | -7.5 | 7.8
CC(=NN1CCN(c2ccccc2)CC1)c1cccs1 | 7.7 | nt | nt | nt | -3.8 | 0.7 | 3.3
COc1cc2c(cc1OC)CN(C(=O)C(CCSC)NS(=O)(=O)c1ccc(C)cc1)CC2 (stereo unspecified) | 5.2 | -9.8 | -17.4 | 3360 | 0.5 | 3.7 | 1.9
COc1cc(C=NNC(=O)NC23CC4CC(CC(C4)C2)C3)ccc1OCC(N)=O | -13.2 | nt | nt | nt | 12.9 | 4.1 | 3.9
CC(C)CNC(=O)NC(=O)COc1ncnc2sccc12 | 6.9 | -1.4 | 2.5 | 7974 | -1.3 | -5.3 | 1.8
CC(=O)CCc1oc2c([N+](=O)[O-])cccc2c1-c1ccc(C)o1 | -4.3 | 0.3 | 8.1 | 4740 | 5.9 | 13.3 | 8.9
COc1ccc(CNC(=O)N2CCc3ccccc3C2)cc1 | 6.9 | 4.8 | -15.3 | 3857 | -9.1 | 8.1 | -1.7
C=CCN1c2ccccc2[C@]23CC(C(=O)OC)N(C(=O)C4CCC4)C2=NC(C(=O)OC)=C(C(=O)OC)C13 (stereo partly specified) | -7.9 | nt | nt | nt | -1.5 | 7.6 | -4.9
Cc1ccc(S(=O)(=O)c2cc3c(=O)n4ccccc4nc3n(CCCN3CCOCC3)c2=N)cc1C | 0.5 | -2.3 | 3.0 | 5700 | 3.6 | 2.0 | 0.2
Cc1ccc(C)c(NC(=S)N(CCc2ccncc2)C(C)C)c1 | -0.9 | 3.5 | -1.2 | 3562 | 9.9 | 7.8 | 3.7
CCc1nc(SCC(=O)NNC(=O)C(C)C)c2ccccc2n1 | -1.7 | -14.3 | -5.0 | ? | -1.9 | -3.4 | -1.0
Nc1nonc1-n1nnc(C(=O)N/N=C/c2cccc(F)c2)c1-c1ccccc1 | nt | 0.5 | -2.1 | 3603 | nt | nt | nt
Cc1ccsc1C=NNC(=O)c1ccco1 | -2.5 | nt | nt | nt | 4.3 | 9.2 | 5.1
O=C(O)c1ccc2c(c1)C(=O)N(Cc1ccco1)C2=O | -4.0 | 0.7 | -11.1 | 4142 | 0.7 | 10.4 | -2.5
Cc1cc(C(C)(C)C)cc(C)c1COC(=O)c1cccnc1 | 14.3 | -6.7 | -8.6 | 4529 | -4.0 | -5.8 | 6.8
O=C(CSc1ncnc2c1cnn2-c1ccc(F)cc1)NC1CCCC1 | 5.3 | 2.5 | -8.3 | 4974 | 2.3 | 2.4 | -0.1
Cc1ccc(-c2cc(C(=O)NCCCn3ccnc3)c3cc(Br)ccc3n2)o1 | -4.9 | nt | -15.7 | 4188 | nt | nt | 4.3
